VDR inh = inhibitors of human vitamin D receptor; 400,000 compounds, 0.93% hits; VDR-SRC2-3 peptide fluorescence polarization, 2 h; AID 504847; Potency, µM, for inactives: max response, negative = inhibition, most hits filed as inhibitors; active means well fitted inhibition curve with a large enough effect; inconclusive means small, poorly fitted or top-dose-only effect, or another doubt; inactive means no such curve, though single readings can be large or run the other way; further: series mostly up to about 120 µM
Target sequence (P11473 whole entry, looked up): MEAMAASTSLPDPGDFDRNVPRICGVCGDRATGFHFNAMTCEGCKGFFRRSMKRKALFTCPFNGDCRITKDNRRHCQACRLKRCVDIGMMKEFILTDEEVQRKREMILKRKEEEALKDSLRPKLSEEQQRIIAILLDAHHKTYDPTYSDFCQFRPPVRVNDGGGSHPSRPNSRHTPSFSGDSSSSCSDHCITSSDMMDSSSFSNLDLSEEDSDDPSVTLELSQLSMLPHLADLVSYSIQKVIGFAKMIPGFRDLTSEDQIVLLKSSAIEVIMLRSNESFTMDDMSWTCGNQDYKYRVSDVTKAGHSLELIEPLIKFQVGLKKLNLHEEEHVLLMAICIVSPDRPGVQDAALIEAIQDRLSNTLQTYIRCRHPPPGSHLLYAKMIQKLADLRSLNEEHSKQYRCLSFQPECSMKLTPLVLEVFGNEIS
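Reagent solutions, kept cold and dark, are dispensed first; compounds are then pinned in at 23 nl, plates briefly spun, and incubated 2 h at ambient temperature. Inhibition of VDR–SRC2-3 peptide binding is read by fluorescence polarization.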
* = called active by the depositor; u = inconclusive; & = joins results of further samples. On the % scale 0 is the no-effect control and ±100 the full control effect; potency means the concentration at half of the fitted maximal effect. Some of the compounds tested, so the mix of outcomes need not match the whole.

VDR inh	Compound
-10%	C=CCn1c(SCc2nc3c(c(=O)[nH]c(=O)n3CCCC)n2CCC)nnc1-c1ccccc1
-9%&6%	O=C(c1cc2ccccc2o1)N1CCN(Cc2ccccc2)CC1
-10%	CC(C)c1ccccc1NC(=O)CNCCc1ccc(C(F)(F)F)cc1
12%	Cc1sc2nc(SCC(=O)c3cc(C)n(CC4CCCO4)c3C)n(C(C)C)c(=O)c2c1C (stereo not drawn)
-1%	CCOC(=O)c1c(-c2ccc(OC)cc2)oc2ccc(OCc3ccccc3C)cc12
-11%	COc1ccc(/C=C/C(=O)O/N=C(\N)c2ccccn2)cc1OC
-3%	Cc1ccc2oc(C(=O)NCc3ccccc3)cc(=O)c2c1
-8%	COc1ccc(N2C(=O)CCC(C(=O)N3CCC(C(N)=O)CC3)C2c2ccc(F)cc2)cc1 (stereo not drawn)
3%	CCOc1ccc(NC(=O)CCC(=O)NNC(=O)NC2CCCCC2)cc1
-1%	Cc1nnc(SCC(=O)Nc2cccc(S(=O)(=O)N(C)c3ccccc3)c2)s1
2%	C=CCNc1nc2ccccc2c(=O)[nH]1
1%	CC(CCc1ccccc1)NC(=O)Cn1c(=O)nc(-c2ccccc2)c2ccccc21 (stereo not drawn)
-16%	Cc1ccc(Cl)cc1NC(=O)COC(=O)CSc1ccccc1
16%	O=C(Nc1ccc(C(=O)N2CCCC2)cc1)c1cccc(C(F)(F)F)c1
-9%	Oc1ccccc1Nc1nc(NCc2ccco2)c2ccccc2n1
-3%	Fc1ccccc1CSc1nc2ncc(Br)cc2[nH]1
-6%	N#Cc1ccc(-c2ccc(F)cc2)nc1Oc1ccc(F)cc1
4%	CC(=O)OCC1OC(n2cnc3c(=O)[nH]cnc32)C(OC(C)=O)C1OC(C)=O (stereo not drawn)
-10%	CCCCC(=O)Nc1cc(OC)c(NC(=S)Nc2ccc(OC)cc2)cc1OC
10%	Cc1ccc(Cl)cc1N1CCN(S(=O)(=O)c2cc3[nH]c(=O)c(=O)[nH]c3cc2C)CC1
-6%	COc1ccc(N(CC(O)CN2CCCCC2)S(=O)(=O)c2ccc(C)cc2)cc1 (stereo not drawn)
12%	CC(C)(C)n1ncc2c(=O)n(CC(=O)N3CCc4ccccc43)cnc21
-9%	CCOC(=O)Cc1csc(NC(=O)c2ccc3c(c2)OCO3)n1
-3%	CCNC(=O)NC(=O)COC(=O)CCc1nc(=O)c2ccccc2n1C
1%	O=C1C=C(c2ccc3c(c2)OCO3)C[C@@H](c2ccc(Cl)cc2)C1
19%	Cc1c(NS(C)(=O)=O)c(=O)n(-c2ccccc2)n1C
-14%	Cc1ccc(S(=O)(=O)N(Cc2cccc([N+](=O)[O-])c2)C(=O)N2CCN(C)CC2)cc1
-10%	COc1ccc(N2CCN(Cc3nc4c(c(=O)[nH]c(=O)n4C)n3CC(C)C)CC2)cc1
-10%	CCN(CC)Cc1c(O)ccc2c(=O)c(-c3ccc4c(c3)OCCO4)coc12
20%	COc1cccc(NC(=O)c2ccnc(N3CCC(C(=O)NCc4ccccc4OC)CC3)c2)c1

VDR inh	Compound
4%	CCc1ccc(NC(=O)c2ccc(F)c(S(=O)(=O)NCC3COc4ccccc4O3)c2)cc1 (stereo not drawn)
12%	CCCCn1c(N)c(-c2nc3ccccc3s2)c2c([N+](=O)[O-])nn(C)c(=O)c21
u	O=C(/C=C/c1cccc([N+](=O)[O-])c1)c1cccs1
-13%	CC1(C)Cc2c(sc(NC(=O)C(=O)N3CCCC3)c2C(N)=O)CO1
-8%	COc1ccccc1N1CCN(C(=O)c2cccc(Oc3ccccc3)c2)CC1
-8%	COc1ccc(CCn2cc3c(c2-c2ccc(Br)cc2)c(=O)n(C)c(=O)n3C)cc1OC
1%	C=CC(=O)NC(NC(=O)C=C)c1ccccc1F
-2%	Fc1cccc(Cl)c1Cn1nnc(-c2ccc(N3CCOCC3)cc2)n1
-17%	CCOc1ccc2[nH]c(=O)c(CN(Cc3nnnn3CCc3ccccc3)CC3CCCO3)cc2c1 (stereo not drawn)
-8%	COc1ccc(N/C(=N\c2nc(C)cc(C)n2)NC(=O)C(C)C)cc1OC
-7%	CC1CCN(S(=O)(=O)c2ccc(Br)s2)CC1
4%	CCOc1ccc(C(CC(=O)Nc2cc(C)c(Cl)cc2OC)N2Cc3ccccc3C2=O)cc1OC (stereo not drawn)
16%	CC(C)(C)OC(=O)C[C@@H]1C/C=C\C[C@H](CC(=O)N(CCO)Cc2ccccc2)C(=O)NC[C@H](c2ccccc2)OC1=O
-11%	COc1cc(/C=N/NC(=O)COc2ccc([N+](=O)[O-])cc2)ccc1OCC(=O)N1CCOCC1
u	CCC(C(=O)NCCC1=CCCCC1)n1nc(C)c2c(C)n(-c3ccccc3)nc2c1=O (stereo not drawn)
-2%	Cc1ccccc1N1C(=O)c2cccc3c(N(C)CCO)ccc(c23)C1=O
4%	CSc1nsc(SCC(=O)Nc2nncs2)n1
-29%	CCOC(=O)c1c(N)sc(=S)c2c1CCC2
-3%	CC(=O)OC(C(=O)NCc1ccc2c(c1)OCO2)c1ccccc1Cl (stereo not drawn)
-5%	CC(=O)c1c(C)[nH]c(C(=O)OCC(=O)N2CCN(S(=O)(=O)c3ccc(C)cc3C)CC2)c1C
-1%	COc1ccccc1N1CCN(C(=O)c2sc3ncnc(N4CCN(c5ccccn5)CC4)c3c2C)CC1
-15%	COc1ccc(CSc2nnnn2-c2ccc(O)cc2)cc1F
u	C=C1C(=O)C2=CC1CCC(=O)C1(C)CCC(OC(C)=O)C(C)(C)C1CC2O (stereo not drawn)
-28%	CCCN(CCC)CCNC(=O)c1cc2c(=O)n(C)c3ccccc3c2n1C
15%	COc1ccc(C(=O)NCC(c2ccc3c(c2)OCO3)N2CCN(c3ccc(F)cc3)CC2)cc1 (stereo not drawn)
-24%	COc1ccc(C(=O)O/N=C(\N)c2ccccn2)c(OC)c1
4%	c1ccc(CNc2nc(-c3cccs3)nc3ccccc23)cc1
50µM*	c1ccc(CNc2ncncc2-c2ccoc2)cc1
-4%	COCCn1c(CN2CCN(c3ccc(OC)cc3)CC2)nc2c1c(=O)n(C)c(=O)n2C
-1%	N#Cc1c(NC(=O)CCC(=O)O)sc2c1CCCC2

VDR inh	Compound
1%	Cc1c(CC(=O)NCCc2ccccc2F)c(=O)oc2cc(O)c(Cl)cc12
-4%	CCCC(=O)NC(Nc1cc(C(F)(F)F)ccc1Cl)C(Cl)(Cl)Cl (stereo not drawn)
-4%	N#Cc1c(/N=C/c2cc(Br)cs2)sc2c1CCC2
-26%	O=C(Nc1ccsc1C(=O)O)c1ccc(Cl)cc1
2%	Cc1ccc(S(=O)(=O)N2CCOCC2)cc1C(=O)Nc1c(C)n(C)n(-c2ccccc2)c1=O
9%	COc1ccc([N+](=O)[O-])cc1NC(=O)CC(C)c1ccccc1 (stereo not drawn)
5%	CCCSCCCNC(=O)C1CCCN(c2nn3cc(-c4ccc(OC)cc4)nc3s2)C1 (stereo not drawn)
-6%	CC(OC(=O)c1ccc(S(=O)(=O)N2CCOCC2)cc1)c1ccccc1 (stereo not drawn)
-10%	O=C(Nc1ccccc1)c1ccco1
-16%	O=C(CCCN1C(=O)/C(=C/c2ccco2)SC1=S)Nc1ccccc1
4%	CN(CC(=O)Nc1cccc(F)c1)C(=O)CN1C(=O)NC2(CCCCC2)C1=O
17%	COc1cc(/C=C/C(=O)N2CCOCC2)ccc1OCc1ccccc1
-18%	O=S(=O)(c1ccc2c(c1)C(O)c1ccccc1CC2)C(F)(F)F (stereo not drawn)
-5%	Cc1cc2oc3ccc(NCCCn4ccnc4)cc3c(=O)c2cc1C
-2%	CCS(=O)(=O)N1CCc2cc(C(=O)NCc3ccc(C)cc3)ccc21
-4%	COC(=O)CCCC1=CC2=C(c3ccccc3)C(=O)C(C)(OC(=O)C3CCCC3)C(=O)C2=CN1Cc1ccc2c(c1)OCO2 (stereo not drawn)
3%	O=C(Nc1ccccc1)c1ccccc1OCc1cccc([N+](=O)[O-])c1
-10%	COc1ccc(CNC(=O)CSc2nnnn2Cc2ccccc2)cc1
-9%	COc1ccc(OC)c(Nc2nc(-c3cccs3)cs2)c1
-11%	COCCNC(=O)c1ccc2c3n(nc2c1)-c1ccccc1CO3
u	S=c1[nH]nc(-c2ccc(Br)cc2)n1Cc1ccccc1
-1%	CN(C)/N=C/c1cn(-c2ccccc2)nc1-c1cccnc1
-9%	COc1ccc(CCNC(=O)Cc2c(C)c3cc(OC)c(OC)cc3oc2=O)cc1
-9%	CCSc1nc2c(c(=O)[nH]1)C(C(C)C)C(C#N)=C(N)O2 (stereo not drawn)
-20%	Cc1cccc(NC(=S)N2CCN(S(=O)(=O)c3cccc(F)c3)CC2)c1
-10%	O=C(CSc1nnc(-c2cccnc2)n1Cc1ccco1)c1ccc(Cl)c(Cl)c1
2%	COc1ccc(-c2ccc(SCC(=O)c3cccs3)nn2)cc1
-6%	CC(NC(=O)C1CCN(C(=O)[C@@H]2Cc3ccccc3CN2C(=O)OC(C)(C)C)CC1)c1ccccc1 (stereo partly drawn)
-5%	COc1ccc(/C=N/N(CCC(=O)NC(C)(C)C)C2=NS(=O)(=O)c3ccccc32)cc1
-13%	CC(C(=O)O)N(c1ccccc1Cl)S(C)(=O)=O (stereo not drawn)

VDR inh	Compound
6%	O=C(COc1coc(CN2CCc3ccccc32)cc1=O)N1CCCCC1
11%	Cn1cc(C(=O)N/N=C/C2=C(N3CCOCC3)C(=C/c3ccc([N+](=O)[O-])cc3)/CC2)ccc1=O
-1%	CC(C)(C)c1ccc(-c2noc(-c3ccc4c(c3)CCO4)n2)cc1
-11%	COc1ccc(-n2c3c(cc(C(=O)NNc4ccccc4C)c2=O)C(=O)CC(C)(C)C3)cc1
-34%	O=C(Cc1ccc(F)cc1)N1CCC(CC2CC(c3cccc(Br)c3)=NO2)(C(=O)NCC2CCCCC2)CC1 (stereo not drawn)
0%	C=CCn1c(N)cc(=O)nc1SCC(=O)Nc1ccc(C(=O)OC)cc1
23%	NS(=O)(=O)c1cccc(NC(=O)CSc2nnc(C3CC3)n2C2CC2)c1
9%	COc1ccc(-c2cc(C(F)F)n3ncc(C(=O)Nc4cccc(S(=O)(=O)N5CCOCC5)c4)c3n2)cc1
12%	COc1ccc(C(=O)/C(C#N)=N/Nc2cccc([N+](=O)[O-])c2)cc1
5%	COc1ccc(NC(=O)Cn2cnc3c(nc4n3CCCCC4)c2=O)c(OC)c1
2%	CCC(C)n1c(SCC(=O)/C(C#N)=C(\C)N)nc2ccccc2c1=O (stereo not drawn)
0%	CCOc1ccc(CCNC(=O)C(CC)n2nc(C)n3c(cc4sccc43)c2=O)cc1OCC (stereo not drawn)
-16%	COc1cc(CNC(=O)c2ccccc2NC(=O)C2=C(C)OCCS2)cc(OC)c1OC
14%	Cc1ccc(NS(=O)(=O)c2ccc(C(=O)N3CCN(S(=O)(=O)c4ccccc4)CC3)cc2)cc1
-10%	O=C(NNC(=O)c1cccc(Br)c1)C(=O)N1CCCCC1
-9%	C/C(=N/NS(=O)(=O)c1ccccc1)c1ccc(NC(=O)C(F)(F)F)cc1
-16%	Cc1cc(/C=C2/SC(=O)N(CC(=O)N3CCCC3)C2=O)c(C)n1C
-14%	CC(=O)c1cccc(S(=O)(=O)NCCC(=O)NC2CCCCCC2)c1
1%	COc1ccc(N(CC(=O)NCCSc2ccccn2)S(C)(=O)=O)cc1
8%	NC(=O)CN1CCOCCOCCN(CC(N)=O)CCOCC1
-9%	COC(=O)CCC(=O)Nc1nc(-c2ccccc2)cs1
2%	CCCCN1C(=S)NC[C@@H]1Cc1cccc2ccccc12
14%	CCOC(=O)c1c(NC(=O)c2cc3nc(-c4ccc(OC)cc4)cc(C(F)(F)F)n3n2)sc(C)c1C
1%	COc1ccccc1NC(=O)CCC(=O)OCC(=O)c1ccc(C)c([N+](=O)[O-])c1
5%	Cc1ccc(CNC(=O)CN(C(=O)C2(C)CC(=O)N=C3C=CC=CN32)c2cccc(C)c2C)cc1 (stereo not drawn)
-7%	CCOC(=O)C1=C(COC(=O)CCNS(=O)(=O)c2ccc(NC(C)=O)cc2)NC(=O)NC1C (stereo not drawn)
-13%	CC(C)CN(CC(C)C)c1nc(N)c(C#N)c(CC#N)c1C#N
-25%	Cc1ccc(C(=O)OC[C@H]2O[C@H](Cl)C[C@@H]2OC(=O)c2ccc(C)cc2)cc1
-17%	COc1ccc(NC(=O)c2nc3nc(C)cc(C(F)F)n3n2)c(C)c1
-5%	Nc1ccc(C(=O)Nc2ccccc2C(=O)O)cc1

VDR inh	Compound
4%	O=C(CCCCn1c(=O)c2ccccc2n(CC(=O)Nc2cccc(F)c2)c1=O)NCc1ccco1
7%	COc1cc(CN2CCN(c3ccccc3F)CC2)cc(OC)c1O
18%	N#CC(=C(O)COC(=O)c1ccc2c(c1)OCCO2)c1nc2ccccc2[nH]1
-13%	COc1ccc(CCNC(=O)CCNC(=O)c2ccc(Br)cc2)cc1OC
-8%	COc1ccc(NC(=S)N/N=C/c2cccn2Cc2ccccc2F)cc1
18%	Cc1ccc(OCc2ccc(C(=O)NCC3CCCO3)cc2)cc1C (stereo not drawn)

Source: PubChem BioAssay (National Center for Advancing Translational Sciences (NCATS))
